# From PubChem
# HIV TAR-Tat = HIV-1 TAR-Tat binding disruption | HIV-1 TAR RNA, Tat peptide displacement FRET; active compounds read high | z-score (test concentration not listed) | 0.6% of 100,000 active | AID 1259389;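 further: score is relative to mean and SD of negative controls; some compounds called inactive have numbers as strong as hits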
# CDC25B CDK2 inh = human CDC25B-CDK2/CyclinA binding inhibition | P30305+P24941 | HTRF CDC25B-CDK2/CyclinA binding, anti-His/anti-Flag; active compounds read high | z-score (concentration not given with the values) | 0.72% of 94,000 active | AID 1259370;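 further: score is relative to mean and SD of negative controls; strong numbers were not always called active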
# Numbers without * were called inactive; · = not tested or not shown.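 How the source made its calls: active means z-score from 3 up in half or more of its runs; inactive means the rest.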
SMILES,HIV TAR-Tat,CDC25B CDK2 inh
Cc1ccc(-c2noc(CN(C(=O)c3ccc4c(c3)OCO4)C(C)C)n2)cc1,0.04,-2.35
CCCC1c2cccn2CCN1C(=O)Nc1cc(C)ccc1C (stereo not drawn),-0.52,·
CC1CCN(c2oc(-c3ccco3)nc2S(=O)(=O)c2ccccc2)CC1,-1.91,-0.34
CCOC(=O)N1CCN(C(=O)CSc2nc3c([nH]c4ccccc43)c(=O)n2C)CC1,1.52,·
CCc1nn(CC(=O)NCCCN2CCCCC2CC)c(=O)c2cc3occc3n12 (stereo not drawn),1.98,-0.1
CCOC(=O)c1oc2ccc3c(c2c1C)C(=O)CC(C)(c1ccc(F)cc1)O3 (stereo not drawn),-0.52,-0.47
CCC(C)N1C(=O)CCC1C(=O)O (stereo not drawn),1.1,·
CCCN1CCN(C(=O)C2=C(C)C(=O)OC23CCN(CC)CC3)CC1,1.34,·
CCc1ccccc1-n1nnc(-c2nc(-c3ccc4c(c3)OCO4)no2)c1C,0.13,·
O=C(Cn1c(=O)oc2ccccc21)N(CCCN1CCOCC1)Cc1ccco1,1.12,·
COc1ccc(-c2coc3c(OC)c(OC)cc(O)c3c2=O)cc1,1.57,·
Cc1sc(NC(=O)CN2CCOCC2)c(C#N)c1C,·,-1.94
CCC(C)NC(=O)CCc1c(C)nc2c(c1C)c(=O)n(C)c(=O)n2C (stereo not drawn),0.72,-0.75
CCCCC1=NN(C(=O)c2ccc(C(C)(C)C)cc2)C(O)(C(F)(F)F)C1 (stereo not drawn),·,-2.08
COc1cc2c(cc1OC)C1=C(C#N)CN(c3ccc(C)c(C)c3)CN1CC2,0.35,15.4*
C=C1SC(Nc2cccc(Cl)c2)=NC1(C)C,·,0.63
CSc1ccc(C2NC(=O)c3c(sc4c3CCN(C)C4)N2)cc1 (stereo not drawn),-2.29,-0.49
Cc1c(-c2nc(-c3ccc([N+](=O)[O-])o3)no2)n(C)oc1=O,·,-1.21
O=C(c1cc(CN2CCOCC2)on1)N1CCN(c2ccccn2)CC1,0.43,·
Oc1ccccc1C=NCCN=Cc1ccccc1O,·,-1.99
O=C(Nc1cnc2nc[nH]n2c1=O)c1ccc(F)cc1,·,-3.47
CNC(=O)c1cc2c(n(-c3ccccc3)c1=O)CCCC2=O,·,0.13
O=C(NCCN1CCN(Cc2ccccc2)CC1)c1ccc2c(=O)n3c(nc2c1)CCCCC3,·,-1.49
CCOC(=O)C1=C(N)Oc2ccc3ccccc3c2C1c1cccc(O)c1 (stereo not drawn),-2.57,-1.61
CSc1nn2c(=O)cc(CSc3nc(C)cc(=O)[nH]3)nc2s1,0.63,-1.11
Nc1c(-c2nc(-c3ccccc3F)no2)nnn1-c1ccccc1,-0.27,·
Cn1nc(C(F)(F)F)c2cc(C(=O)O)sc21,·,0.13
O=C(CSc1ccc2nnc(-c3ccccc3)n2n1)Nc1ccc(F)cc1F,·,-3.63
Cc1[nH]c2ccccc2c1C(c1ccccn1)N1CCC(C(N)=O)CC1 (stereo not drawn),·,-1.52
Cn1nc(CC(=O)Nc2ccc(Cl)cc2)c2ccccc2c1=O,1.07,-1.8
CCOC(=O)c1sc(/S(C)=N/C(=O)Nc2ccccc2Cl)c2c1CCC=C2 (stereo not drawn),·,-1.86
CCCCNC(=O)CCCn1sc2ccccc2c1=O,1.62,0.21
N#C/C(=C\c1ccccc1OC(F)(F)F)S(=O)(=O)c1ccccc1,·,-1.85
CCOC(=O)c1c(C)oc2c(Br)cc(NS(=O)(=O)c3ccc(Cl)c(C)c3)cc12,0.63,0.57
Fc1cc(F)cc(-c2noc3ncnc(NC4CCN(Cc5ccccc5)CC4)c23)c1,0.52,·
CCn1c(C(=O)N2CCC(C(=O)NC(C)c3ccccc3)CC2)cc2sccc21 (stereo not drawn),·,-2.01
CCOC(=O)N1CCN(C(=O)c2ccc3c(Cl)c4c(nc3c2)CCC4)CC1,-0.15,-0.33
O=C(NCc1ccc2c(c1)OCO2)C1CCN(S(=O)(=O)c2cnc[nH]2)CC1,0.74,-0.53
O=C(Nc1ccccc1)C1CC(=O)N(c2cccc(-c3noc(C4CCC4)n3)c2)C1 (stereo not drawn),0.01,·
O=C1c2ccccc2S(=O)(=O)N1CC(O)COc1ccccc1 (stereo not drawn),·,-1.24

# An excerpt from above in order of number of heavy atoms, ascending:
SMILES,HIV TAR-Tat,CDC25B CDK2 inh
Cn1nc(C(F)(F)F)c2cc(C(=O)O)sc21,·,0.13
CCOC(=O)c1sc(/S(C)=N/C(=O)Nc2ccccc2Cl)c2c1CCC=C2 (stereo not drawn),·,-1.86
CCn1c(C(=O)N2CCC(C(=O)NC(C)c3ccccc3)CC2)cc2sccc21 (stereo not drawn),·,-2.01

# New compounds follow
SMILES,HIV TAR-Tat,CDC25B CDK2 inh
Cc1cc(NC(=O)CCCn2c3ccccc3c(=O)c3ccccc32)no1,·,0.27
COc1cccc(-c2nc(SCc3cc(=O)n4c(C)csc4n3)n[nH]2)c1,-0.52,·
CCCCOC(=O)C1C2C=CC3(CN(CC4CCCO4)C(=O)C13)O2 (stereo not drawn),·,0.04
O=C(CSc1ncnc2ccccc12)Nc1ccc(F)cc1,·,-0.9
Fc1ccc(-c2nnc3sc(-c4cccnc4)nn23)cc1,1.67,-0.34
C=CCN1C(=O)C(O)(CC(=O)c2ccc3c(c2)OCO3)c2ccccc21 (stereo not drawn),1.07,0.96
Cc1cccc(-c2noc(-c3cccs3)n2)c1,-0.5,-0.86
Cc1nnsc1C(=O)Nc1ccc(-n2nc(C(F)(F)F)cc2C(F)(F)F)cc1,·,-0.35
Cn1c(-c2ccc(F)cc2)cnc1NCc1cc(Cl)ccc1O,0.05,-0.72
O=C(Cn1cc2c(n1)CCCCC2)Nc1ccc(F)cc1,·,-0.49
COC(=O)c1sc2cccc(Cl)c2c1NC(=O)CS(=O)(=O)c1ccc(Cl)cc1,0.71,-0.62
CCCc1nn2c(=O)cc(CSc3nnc(-c4cccs4)o3)nc2s1,2.4,-1.65
Cc1ccc2c(c1C)NC(=O)CC(c1ccccc1O)=N2,·,-1.71
C=C(C)Cn1c(=O)c2c(nc3n2CCN3c2cccc(C)c2)n(C)c1=O,1.7,·
Cn1c(SCC(=O)Nc2ccc(F)cc2F)nc2c(c1=O)SCC2,-0.41,-1.7
CNC(=S)N(Cc1ccccc1)Cc1cccs1,·,0.6
CCCCSc1nnc2c(=O)[nH]c(=O)[nH]c2n1,1.27,0.83
O=C(Cn1c(-c2ccccn2)nc2ccccc21)NCCCn1ccnc1,0.66,1.04
Nc1ccc(O)c(-c2nc3ccccc3o2)c1,1.63,-1.48
COc1ccccc1/C=C/c1nc(C#N)c(N2CCN(C)CC2)o1,1.49,-2.7
CCOC(=O)c1c(NC(=O)CN2C(=O)CC(c3ccco3)Sc3ccccc32)sc2c1CCC2 (stereo not drawn),·,-0.62
Cc1cccc(-c2cc(Nc3cc(Cl)ccc3O)nc(C)n2)c1,0.56,1.35
CC(C)c1ccc(NC(=S)NNC(=O)NC(=O)c2csc([N+](=O)[O-])c2)cc1,·,-1.72
CCCCn1c(C2CC(=O)N(c3ccccc3Cl)C2)nc2ccccc21 (stereo not drawn),2.06,-1.03
O=C(NCc1ccccn1)c1nnc(CS(=O)(=O)c2ccccc2)o1,-0.72,0.09
CC1CCc2c(sc3ncnc(SCc4ccc([N+](=O)[O-])cc4)c23)C1 (stereo not drawn),·,-1.96
Cc1ccc(C(=O)c2oc3cc(N)ccc3c2C)cc1,-4.95,·
COc1cccc(-c2cc(C(=O)O)c3c(-c4ccccc4)[nH]nc3n2)c1,2.54,·
Cn1cc(NC(=O)OC(C)(C)C)cc1C(=O)O,·,-0.21
CCOC(=O)C1CCCN(c2c(NCCN3CCCCC3C)c(=O)c2=O)C1 (stereo not drawn),2.52,-0.85
O=C(O)CSc1ccc(F)cc1,0.74,·
CC1CCC(NC(=O)C2(C)Cn3c(cc4sccc43)C(=O)N2CCN2CCOCC2)CC1 (stereo not drawn),1.76,-1.95
O=C(Cn1cc2c(n1)CCCCC2)NCCC1=CCCCC1,·,-1.69
Cc1ccc(N=Cc2cc(-c3ccccc3)oc2S)c(C)c1,0.63,-0.14
COc1ccc(C2C(C#N)=C(N)Oc3ccc4ccccc4c32)cc1 (stereo not drawn),0.44,-0.26
O=C(c1ccccc1)c1cn(Cc2ccc(Cl)cc2)c2cc3c(cc2c1=O)OCO3,2.32,-2.02
CCCN1CCN(c2ncc3c(n2)CCN(Cc2ccc(CC)cc2)C3)CC1,1.54,·
O=c1ccc(N2CCCN(S(=O)(=O)c3cnc[nH]3)CC2)nn1-c1ccccc1,0.07,·
O=C(c1cc(C2CC2)[nH]n1)N1CCN(CCOc2ccc(Cl)cc2)CC1,1.02,·
CCc1cc(C)cc(OCCOc2ccccc2/C=N/NC(C)=O)c1,·,0.21
O=C(Nc1cnc2ccccc2c1)c1ccncc1,1.35,-1.3
CC1=C(c2ccccc2)S(=O)(=O)N=C1N1CCC(N2CCCCC2)CC1,-0.93,-0.65
O=c1c2ccccc2nc2n1CCN2CCOc1ccc(F)cc1,-0.69,-1.9
Cc1nc(C)c(-c2cc(C)c3c(C)nc(C)nc3n2)c(N)n1,·,-1.78
OCCCNc1ncnc2c1c(-c1ccccc1)c(-c1ccccc1)n2Cc1ccco1,·,0.18
Cc1c(C(=O)NCc2ccco2)sc2nc3n(c(=O)c12)CCC3,2.04,·
COc1ccccc1N1CCN(C(=O)c2c(C)noc2C)CC1,·,-1.51
CN(CC(=O)NC1CCCC1)S(=O)(=O)c1ccc(C(=O)N2CCOCC2)s1,1.63,·
Cc1cc(-c2ccc(S(=O)(=O)Nc3ccc(-c4ccno4)cc3)cc2)on1,0.35,·
COC(=O)C1C(c2ccccc2)NC(c2ccccc2)C(C(=O)OC)S1(=O)=O (stereo not drawn),-0.26,0.47
NNC(=O)Cn1nnc(-c2cccc([N+](=O)[O-])c2)n1,·,-0.73
COCCCNc1ncnc2scc(-c3ccc(F)cc3)c12,-0.45,·
O=C(NCCN1CCOCC1)c1cnn(-c2ccc(F)cc2)c1-n1cccc1,0.92,·
Cc1ccc(NS(=O)(=O)c2cc(-c3csc(C)n3)ccc2C)c(C)c1,3.38,·
O=C(NCc1cccs1)C1CCCN(S(=O)(=O)c2ccc3[nH]c(=O)ccc3c2)C1 (stereo not drawn),-2.3,·
O=C(CSc1ccc(-c2cccnc2)nn1)NCc1ccc(F)cc1,1.47,·
Cc1cc2c(cc1S(=O)(=O)Nc1ccccn1)OCCN2C,1.34,·
Cc1nc(-c2ccc(F)cc2)sc1CCNS(C)(=O)=O,1.91,·
COc1cc(-c2n[nH]c(=S)n2-c2ccc(Br)cc2)cc(OC)c1OC,·,-0.22
O=C(NCc1ccc2c(c1)OCO2)c1cnc(N2CCCC2)nc1,1.12,·

# Single values from the entries so far:
# Oc1ccccc1C=NCCN=Cc1ccccc1O in CDC25B CDK2 inh = -1.99
# Fc1cc(F)cc(-c2noc3ncnc(NC4CCN(Cc5ccccc5)CC4)c23)c1 in HIV TAR-Tat = 0.52

# Entries of single compounds, looked up by structure:
# O=c1c2ccccc2nc2n1CCN2CCOc1ccc(F)cc1 across the screens: HIV TAR-Tat: -0.69; CDC25B CDK2 inh: -1.9
# Cc1ccc(NS(=O)(=O)c2cc(-c3csc(C)n3)ccc2C)c(C)c1 across the screens: HIV TAR-Tat: 3.38; CDC25B CDK2 inh: ·
# O=C(NCc1cccs1)C1CCCN(S(=O)(=O)c2ccc3[nH]c(=O)ccc3c2)C1 (stereo not drawn) across the screens: HIV TAR-Tat: -2.3; CDC25B CDK2 inh: ·

# For convenience, three of the compounds above:
SMILES,HIV TAR-Tat,CDC25B CDK2 inh
O=C(NCc1cccs1)C1CCCN(S(=O)(=O)c2ccc3[nH]c(=O)ccc3c2)C1 (stereo not drawn),-2.3,·
O=C(CSc1ccc(-c2cccnc2)nn1)NCc1ccc(F)cc1,1.47,·
Cc1cc2c(cc1S(=O)(=O)Nc1ccccn1)OCCN2C,1.34,·

# (continued)
SMILES,HIV TAR-Tat,CDC25B CDK2 inh
CC1CCN(c2nccn(-c3cccc(Cl)c3)c2=O)CC1,0.02,·
COC(=O)C1(O)CC(C)N(C)CC1C (stereo not drawn),·,-1.64
CC(=O)Oc1cccc(C2OC(c3ccc4c(c3)OCO4)=NN2C(C)=O)c1 (stereo not drawn),1.96,·
O=C(Nc1ccc2nsnc2c1)c1cc(=O)c2cc(Br)ccc2o1,0.88,-1.64
C=CCc1cccc(/C=N/NC(=O)CN2CCN(Cc3ccccc3)CC2)c1O,·,-0.43
COc1ccc(C(=O)c2c[nH]c3nc(C)ccc3c2=O)cc1,0.73,·
O=C(NCc1cccs1)C1CCC(CNc2c(N3CCCCC3)c(=O)c2=O)CC1 (stereo not drawn),0.09,-2.32
C=C[C@@](C)(O)CCC1C(=C)CCC2[C@@](C)(CO)CCC[C@]12C (stereo partly drawn),2.45,·
CCOC(=O)c1ccc(CSc2nc3c(c(=O)[nH]2)CCC3)cc1,1.6,-1.26
O=C1CN(c2cc(Cl)cc(Cl)c2)C(=O)CN1/N=C/c1cccnc1,·,0.21
Cc1cccc(-c2nc3c4c5c(sc4ncn3n2)CCCC5)c1,·,-0.05
CN(C(=O)C1=CC(c2ccc(F)cc2)=NS(=O)(=O)N1C)c1ccccc1,1.68,-2.09
CN1C(C(=O)N2CCN(c3ccc(F)cc3)CC2)=CC(c2ccco2)=NS1(=O)=O,-0.09,-1.08
COC(=O)C1C(C)(C(=O)OC)N=NC1(c1ccccc1)c1ccccc1 (stereo not drawn),·,-1.91
CCCNc1nc(N2CCN(C)CC2)nc2c1cnn2C,1.13,·
CCc1ccc(C2c3c(-c4ccccc4O)n[nH]c3C(=O)N2CCCOC(C)C)cc1 (stereo not drawn),0.04,-2.5
Cn1cnc(S(=O)(=O)N2CCCC(C(=O)NC3CCCCC3)C2)c1 (stereo not drawn),-0.01,·
CCc1nnc(SCC(=O)Nc2ccc(OC)c(OC)c2)c2cc3sc(C)cc3n12,1.35,·
CCOC(=O)C1CCCN(c2c(NCCN3CCCCCC3)c(=O)c2=O)C1 (stereo not drawn),·,-0.64
CC1CCN(S(=O)(=O)c2cn(CC(=O)N3CCCCC3)cn2)CC1,0.45,·
CC(C)Cn1c(=O)c2ccccc2n2c(CCC(=O)N3CCN(C(=O)c4ccco4)CC3)nnc12,1.96,-1.91
